Screening results: PubChem, Fisher Drug Discovery Resource Center
NPYLR7 ag: activates Aedes aegypti NPYLR7 receptor; HEK293T NPYLR7/Galpha15, GCaMP6s calcium fluorescence; activation, % at 10 µM; 270,000 compounds, 0.15% hits; AID 1259423; in the data active means activation above about 40%;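 further: 0% = vehicle and 100% = reference agonist at the receptor; some compounds past the cut are filed as inactive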
NPYLR7 ag max-min: further read-out of NPYLR7 ag, marked with its call; activation, %; measured here: Max-Min RFU normalised activation; some inactives read as strong as hits;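 span of the calcium signal over five minutes; 0% = vehicle and 100% = native peptide agonist; compound fluorescence can raise it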
Active calls of the source: *; & = joins results of further samples. An excerpt. The share of hits here may be higher or lower than overall.

The first 5 compounds, to show the layout:
Results follow in this order: NPYLR7 ag, NPYLR7 ag max-min
Cc1ccc(Cc2nsc(N(CCC(=O)N3CCN(c4cccc(C(F)(F)F)c4)CC3)C(C)C)n2)cc1
 : -9, -13
CCOC(=O)c1cnn(-c2c(F)c(F)c(F)c(F)c2F)c1N
 : 5, 4
CC(C)N(C(=O)CNc1ccccc1C(N)=O)C1CCCCC1
 : 0, -2
Cc1nnc2c(C(=O)N[C@@H]3C[C@H]4CC[C@@H]3C4)cccn12
 : -7, -12
CCCCNC(=O)CSc1nc(C2CC2)nc2ccccc12
 : 2, -5

This part in full, from the first entry:
Results follow in this order: NPYLR7 ag, NPYLR7 ag max-min
Cc1ccc(Cc2nsc(N(CCC(=O)N3CCN(c4cccc(C(F)(F)F)c4)CC3)C(C)C)n2)cc1
 : -9, -13
CCOC(=O)c1cnn(-c2c(F)c(F)c(F)c(F)c2F)c1N
 : 5, 4
CC(C)N(C(=O)CNc1ccccc1C(N)=O)C1CCCCC1
 : 0, -2
Cc1nnc2c(C(=O)N[C@@H]3C[C@H]4CC[C@@H]3C4)cccn12
 : -7, -12
CCCCNC(=O)CSc1nc(C2CC2)nc2ccccc12
 : 2, -5
Cc1ccccc1C1SCC(=O)N1CC(=O)O (stereo not drawn)
 : -1, -6
COc1ccc(C(=O)N2CCN(c3nc(C)nc(C)c3Cc3cccc(C(F)(F)F)c3)CC2)cc1
 : 2, 9
CC(C)N(CC(=O)N1CCc2sccc2C1c1ccc(F)cc1)C(=O)c1cc(C(F)(F)F)cc(C(F)(F)F)c1 (stereo not drawn)
 : 20, 15
Cc1cc(CSc2nc3sc4c(c3c(=O)n2CC2CCCO2)CCCC4)on1 (stereo not drawn)
 : 2, -1
CN(Cc1cccc(C#N)c1)C(=O)c1cc2c(s1)CCCCCC2
 : 7, 4
Fc1ccccc1-c1nn(CN2CCOCC2)c(=S)n1C1CCCCC1
 : 0, -1
CSc1ccc(C=CC(=O)Nc2nnc(C)s2)cc1
 : -3, 3
Cc1cc(N2C(=O)c3oc4cc(C)c(Cl)cc4c(=O)c3C2c2ccc(F)cc2)no1 (stereo not drawn)
 : 5, 5
Cc1ccc(NC(=O)Cn2nc3c(=O)n(-c4ccc(Br)cc4)ccn3c2=O)c(C)c1
 : 4, 3
CN(CC(=O)NCC#N)C1(c2ccccc2Cl)CCCCC1=O (stereo not drawn)
 : 0, -2
COC(=O)c1cc(=O)[nH]c(=S)[nH]1
 : -1, -4
O=C(O)c1cccnc1CN1CCCC(c2ccccc2)CC1 (stereo not drawn)
 : 9, 9
CCOC(=O)CC(=O)N1C[C@H](Oc2ccccn2)[C@H]2C[C@@H]1CC[C@H]2OC
 : 25, 33
CCc1nc2ccc(C(=O)NCc3cccs3)cn2c1N(CC)Cc1ccc(OC)c(OC)c1
 : 7, 15
Cc1[nH]nc(NC(=O)CNC(=O)/C=C/c2ccccc2)c1C
 : 4, 1
O=C(COc1cccnc1)N1CCOC(c2ccc(Cl)c(Cl)c2)C1 (stereo not drawn)
 : 22, 9
CCCSc1nc2nc3c(cn2n1)C(=O)CC(c1ccco1)C3 (stereo not drawn)
 : 11, 12
CC(C)NC(=O)C1CCN(C2CCN(Cc3cc(Cl)ccc3O)CC2)CC1
 : 3&13, 1&9
COCCCN(Cc1c(-c2cccc(C)c2)noc1N1CCOCC1)C(=O)c1cccc(Br)c1
 : 8, 8
CCc1nc2ccc(C(=O)N(CC)CCN(C)C)cn2c1N(C)CCCc1ccccc1
 : 8, 2
CCc1cccc(NS(=O)(=O)c2ccc3c(c2)CC(=O)N3)c1
 : 2, 3
O=C(CSc1nc2[nH]ncc2c(=O)[nH]1)Nc1cccc(C(F)(F)F)c1
 : -2, -2
COc1ccc(CCNC(=O)C(C2CCCC2)N2CCN(C(=O)c3ccc(C(F)(F)F)cc3)CC2)cc1 (stereo not drawn)
 : 10, 6
Cc1cc(C(=O)NC2CC2c2ccccc2)ccc1-n1cncn1 (stereo not drawn)
 : 1, 0
COc1ccc(OC)c(NC(=O)C(=O)NCC2CCN(Cc3ccco3)CC2)c1
 : -4, -4
CN(CC(=O)NC(=O)Nc1ccc(Br)cc1)C1CCS(=O)(=O)CC1
 : -1, -2
Cc1cccc(-c2noc(-c3cccn4c(=O)n(CC(=O)N5CCN(c6ccccc6)CC5)nc34)n2)c1
 : -2, -4
O=C(C=Cc1cccs1)NC1CC1
 : 2, 9
Cc1ccc(Cc2nc(N3CCCN(C(=O)c4ccc(Cl)cc4)CC3)c3c(C)nn(-c4ccccc4)c3n2)cc1
 : 8, 12
Cc1nc2ccccn2c(=O)c1NC(=O)C(C)Oc1ccc2c(c1)OCO2 (stereo not drawn)
 : -5, -3
CC(C)C[C@H]1C(=O)N2CCC[C@H]2[C@]2(O)O[C@](NC(=O)[C@@H]3C=C4c5cccc6[nH]c(Br)c(c56)C[C@H]4N(C)C3)(C(C)C)C(=O)N12
 : 9, 2
Cc1ccc(CNc2nc3c(-c4cccc(F)c4)nnn3c3ccccc23)cc1
 : -6, -8
CSc1ccc(NS(=O)(=O)c2ccc(Cl)s2)nc1
 : 3, 0
CC(C)CCCC1CN(C(=O)CCn2cccn2)CCO1 (stereo not drawn)
 : -1, -4
CN1CC2(CCCN(Cc3ccc(-c4ccc(Cl)cc4)o3)CC2)OC1=O (stereo not drawn)
 : 5, 5
Cc1cc(NC(=O)N(C)CCOc2cccc(Cl)c2)no1
 : 16, 7
COCCN(CC1CCCN(C2Cc3ccccc3C2)C1)C(=O)Cn1nc2ccccc2n1 (stereo not drawn)
 : 2, -3
CC(=O)N(c1cc2sc(=O)oc2c2ccccc12)S(=O)(=O)c1ccc(C)cc1
 : -6, -7
FC(F)(F)c1cccc(C2c3cccn3CCCN2Cc2ccoc2)c1 (stereo not drawn)
 : 2, 6
COc1ccc(Cl)cc1N1CCN(C(=O)NC(C)(C)C)C(C)C1=O (stereo not drawn)
 : -4, 2
N#CCCn1cc(/C=C/C(=O)N2CCCCC2)c2ccccc21
 : 9, 7
O=[N+]([O-])c1ccc(S(=O)(=O)NCc2ccc3c(c2)OCO3)cc1
 : 6, 2
Cc1ccccc1-c1cccc(C(=O)NCC2CC(=O)N(C3CC3)C2)c1 (stereo not drawn)
 : 5, 4
O=C(CNC(=O)c1ccc(Br)o1)NCCc1ccccn1
 : 12, 8
O=C1c2cccc3cccc(c23)N1Cn1c(=S)sc2ccccc21
 : 4, 11
O=C(O)CN1C(=O)/C(=C\c2ccc(OC(=O)c3ccc(Cl)cc3)cc2)SC1=S
 : 20, 18
CC(=O)Oc1c(-c2ccc(NC(=O)c3ccccc3Cl)cc2)c(-c2ccc(F)cc2)nn1-c1cc(C)ccc1C
 : 14, 21
CN(C)CC#CCC1(O)c2ccccc2-c2ccccc21
 : 2, -1
Fc1ccc(CCC2CCCN(C3CCN(Cc4ccccn4)CC3)C2)cc1 (stereo not drawn)
 : -3, -10
O=C(COc1ccc2ccccc2c1)N=C1N=C2C=CC(Br)=CN2Cc2ccccc21
 : 4, -3
Cc1ccc(C(=O)OC2CSC2)cc1
 : -8, -11
CC(CCC(C)C)=NNc1nc2ccccc2[nH]1
 : 14, 8
CCc1nc2n(n1)C(=O)C(C(c1cccc(F)c1)N1CCCCC1)S2 (stereo not drawn)
 : 2, 44
CCC(CO)[n+]1c(C)cc(C=C2Sc3ccccc3N2CC)cc1C (stereo not drawn)
 : 57*, 44*
Cc1ccc2nc(COC(=O)C=Cc3ccc(Br)o3)cc(=O)n2c1
 : 3, 5

(further entries)
Results follow in this order: NPYLR7 ag, NPYLR7 ag max-min
CCC(C)NC(=O)c1ccc(CSc2nnc(-c3cccs3)n2-c2ccc(C)cc2)cc1 (stereo not drawn)
 : 17, 29
C(=C\c1ccccc1)/CN1CCC(Cc2nncn2-c2ccccc2)CC1
 : 14, 5
CCC(NC(=O)c1noc(C)c1CO)c1nc(C)c(C)s1 (stereo not drawn)
 : -7, -11
O=[N+]([O-])c1ccc(S(=O)(=O)Nc2ccc(SC(F)F)cc2)cc1
 : 4, 3
CCC1(C)COC(c2ccccc2)(c2ccccc2)OC1
 : -3, 3
O=C(NCCc1cc(Cl)cc(Cl)c1)c1cc[nH]c(=O)c1
 : 4, 1
CCOc1ccccc1-c1cc2c(cc1C(N)=O)OCO2
 : 12, 9
COc1ccc(-c2noc(-c3cc(OC)cc(OC)c3)n2)cc1
 : 14, 10
CCC(NC(=O)CCNC(=O)c1ccccc1F)c1cc(C)ccn1 (stereo not drawn)
 : -6, -9
O=C(NCC1Cc2cc(Oc3ccccc3)ccc2O1)c1ccc([N+](=O)[O-])o1 (stereo not drawn)
 : 13, 17
Cc1ccccc1C1=NC(C)(CC(=O)NCc2nccs2)ON1C (stereo not drawn)
 : 8, 4
CCCCN(CC(=O)N1c2ccccc2-n2cccc2C1c1cc(OC)ccc1OC)C(=O)COc1ccccc1 (stereo not drawn)
 : 7, 9
COC(=O)c1cc2c(C(F)(F)F)cc(N3CCCC3)nc2s1
 : 10, 8
COc1cccc(-c2ccc3nnc(SCC(=O)N4CCN(c5ccccc5)CC4)n3n2)c1
 : -21, -23
NC(=O)COc1ccc(Cl)cc1-c1nccn1Cc1ccsc1
 : 10, 3
CSc1ccccc1C(=O)C1CCCN(C(=O)c2cccc(C(F)(F)F)c2)C1 (stereo not drawn)
 : 14, 2
CNS(=O)(=O)c1ccc(OC)c(N(C)S(C)(=O)=O)c1
 : 9, 7
O=C(CSc1nnc(-c2ccc(Cl)cc2)n1-c1ccccc1)N/N=C\c1cccc(Br)c1
 : 11, 9
O=C1CCC(C(=O)N2CCC(c3nc4ccccc4o3)CC2)CN1CCN1CCOCC1 (stereo not drawn)
 : 2, -1
CN(Cc1nccn1Cc1ccccc1F)C(=O)C1CC1
 : 0, 1
Cc1ccc(Cc2nc(CSCc3ccc(F)cc3)cs2)cc1
 : 7, 7
COc1cc(C(O)=C(C#N)C(=O)CC(C)(C)C)ccc1C
 : 5, 3
Cc1[nH]cnc1CNC1CC(=O)N(Cc2ccccc2C(F)(F)F)C1 (stereo not drawn)
 : 6, 1
CC(C)NC(=O)C1(C)CCN1C(=O)c1ccno1 (stereo not drawn)
 : 6, 2
NC(=O)c1cccc(CC2CCN(C(=O)CCc3cn4ccccc4n3)C2)c1 (stereo not drawn)
 : 2, 0
O=C1CN(Cc2ccccc2F)c2ccccc2N1
 : 11, 8
CC(=O)CC1(O)C(=O)N(Cc2ccccc2Cl)c2c(C)cc(C)cc21 (stereo not drawn)
 : -1, -4
CCCCN(CCCC)C(=O)c1csc(Br)c1
 : 3, 7
CCCCCCn1c(CN2CCCC(C)C2)nc2c1c(=O)n(C)c(=O)n2C (stereo not drawn)
 : 12, 5
COc1ccc(Cl)cc1N1CCN(C(=O)c2ccc(Cl)cc2Cl)C(C)C1=O (stereo not drawn)
 : 0, 13
Cc1cc(OCC(=O)Nc2ncc(Cc3ccccc3Cl)s2)no1
 : 2, 1
Fc1ccc(CC2CCN(Cc3nccs3)CC2)cc1
 : 0, -3
CCOc1cc2c(cc1CNC(=O)Cn1[nH]c(=O)c3ccccc3c1=O)OC(C)C2 (stereo not drawn)
 : 0, -4
CCn1c(C)c(C)n2c3c(=O)n(C(C)C(C)=O)c(=O)n(C)c3nc12 (stereo not drawn)
 : -1, 4
CC(C)c1cccc(N(C)CC2=NS(=O)(=O)c3ccccc3N2)c1
 : 7, 4
CN(C)C(=O)CN1C(=O)C(CCC(=O)N2CCC(O)(c3ccccc3)CC2)NC(=O)c2ccccc21 (stereo not drawn)
 : -2, 15
CN(C)CCCN(C(=O)c1ccc(Cl)s1)c1nc2cc3c(cc2s1)OCO3
 : -1, -2
Cc1ccc(Cc2nc(N3CCN(C(=O)Nc4ccccc4)CC3)c3c(C)nn(-c4ccccc4)c3n2)cc1
 : 11, 11
CNC(=S)NN=Cc1ccc(N2CCOCC2)s1
 : 7, 7
O=[N+]([O-])c1cccc(S(=O)(=O)N2CCN(c3nc4nccc(-c5ccc(Cl)c(Cl)c5)n4n3)CC2)c1
 : 31, 23

Four of the compounds above, as labelled records.
O=C(NCCc1cc(Cl)cc(Cl)c1)c1cc[nH]c(=O)c1
  NPYLR7 ag: 4
  NPYLR7 ag max-min: 1
Cc1ccc(NC(=O)Cn2nc3c(=O)n(-c4ccc(Br)cc4)ccn3c2=O)c(C)c1
  NPYLR7 ag: 4
  NPYLR7 ag max-min: 3
Cc1cccc(-c2noc(-c3cccn4c(=O)n(CC(=O)N5CCN(c6ccccc6)CC5)nc34)n2)c1
  NPYLR7 ag: -2
  NPYLR7 ag max-min: -4
O=C(CSc1nc2[nH]ncc2c(=O)[nH]1)Nc1cccc(C(F)(F)F)c1
  NPYLR7 ag: -2
  NPYLR7 ag max-min: -2

Next section
Results follow in this order: NPYLR7 ag, NPYLR7 ag max-min
Cn1cccc1C1CC(c2ccc(F)cc2)=NN1C(=O)CN1CCOCC1 (stereo not drawn)
 : 20, 14
CC(NC(=O)c1ccc(S(=O)(=O)N2CCOCC2)o1)c1ccccc1 (stereo not drawn)
 : -5, -5
CCC(c1nc(C)no1)n1ccnc1-c1ccc(-n2cccn2)cc1 (stereo not drawn)
 : 8, 3
Cc1cc(=O)n2c3ccccc3n(CC(O)CN3CCN(c4ccccc4)CC3)c2c1C#N (stereo not drawn)
 : 2, 9
CCNC(=O)c1ccc(Sc2nnnn2-c2ccc(Cl)cc2)nn1
 : 1, 0
Cc1cc(C(=O)Nc2nnc(C3CC3)s2)c(C)s1
 : 5, 10
O=C(Nc1cccc(Cc2ccccc2)c1)Nc1ccc2nc([C@H]3C[C@H](O)[C@@H](CO)O3)[nH]c2c1
 : 19, 20
NN1C(=O)c2cccc3c(N4CCOCC4)ccc(c23)C1=O
 : 4, 3
Cc1nc(SCc2ccc([N+](=O)[O-])cc2)c2c(=O)n(C)c(=O)n(C)c2n1
 : 8, 10
COC(=O)c1c(NC(=O)CN(C)Cc2ccco2)sc2c1CCCC2
 : -1, 24
Cc1cc(C)c2oc3c(c(=O)c2c1)C(c1cccc(O)c1)N(Cc1cccnc1)C3=O (stereo not drawn)
 : 5, 0
Cc1ccc2[nH]c3c(C#N)c(O)cn3c(=O)c2c1
 : 3, -6
CS(=O)(=O)c1cnc(N2CCOCC2)nc1C1CCCNC1 (stereo not drawn)
 : 3, -3
